Bioassay records deposited in PubChem by several laboratories.
Bead autofluor = counter-screen for toxin protease inhibitors: compound fluorescence | compound autofluorescence counterscreen, microsphere flow cytometry; hits give high values | fluorescence intensity (test concentration not listed) | 360,000 compounds, 3.1% hits | AID 624483;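 active = at least 3 SD above the mean of all compounds, about 16000 in these data; inconclusive = too few beads counted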;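 also: 100 nL of 1 mM stock went into each well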
PrP UTR inh = suppresses PrP 5' UTR mRNA reporter expression | inhibition, % (test concentration not listed) | cell-based PrP 5' UTR mRNA reporter, plate reader | 340,000 compounds, 0.35% hits;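 active = every replicate at 50% or more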;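 also: 0 = median of the neutral control wells; tested in H4 reporter cells; numbers are from one replicate; inactives centre near -14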
Mtb hypoxia inh = reduces hypoxia-regulated biosensor signal in M. tuberculosis; AID 1159583; fluorescence inhibition, % (no concentration beside the values); 300,000 compounds, 0.1% hits; M. tuberculosis hypoxia-regulated fluorescent reporter, fluorescence;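 active = 35 to 45% if threefold the growth effect, above 45% if 1.5-fold the growth effect; inactive = the rest, general growth blockers included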;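 also: wells of about 50 µL received 100 nL stock; 0% = vehicle wells and 100% = reference inhibitor wells; whole bacteria with a GFP reporter of the hypoxia response; strong numbers were not always called active; many hits fall short of the cut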
ugtP null kill = growth inhibition of S. aureus ugtP deletion strain; S. aureus RN4220 ugtP deletion, OD600 growth, 16 h; some inactives read as strong as hits; growth inhibition, % (no concentration beside the values); 330,000 compounds, 0.54% hits;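 active = z-score under -3 and OD600 up to 0.15 on both plates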;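 also: plate controls were untreated wells for no effect and antibiotic for full effect; wells of about 80 µL received 100 nL stock; the first replicate is given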
RN4220 kill = kills Staphylococcus aureus RN4220; AID 1259311; inhibition, % (concentration not given with the values); 330,000 compounds, 0.33% hits; S. aureus RN4220 growth, OD600, 16 h;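 active = z-score of -3 or lower and OD600 up to 0.18 on both plates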;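 also: plate controls were untreated cells for no effect and reference antibiotic for full effect; stock transfer was 100 nL into about 80 µL; one replicate is shown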
BJeLR lethal = BJeLR cell viability loss; BJeLR (HRASV12) viability, CellTiter-Glo ATP luminescence, 48 h; reference of the scale not given here; inhibition, % (test concentration not listed); 300,000 compounds, 0.17% hits;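 active = replicate mean above 50%; inconclusive = above 50% but judged a plate artefact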;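 also: 50 nL library stock added to about 25 µL; numbers are from one replicate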
Mtb hypoxia inh growth = second read-out of Mtb hypoxia inh, no call of its own (marks repeat the call); growth inhibition, %; measured here: M. tuberculosis growth (absorbance);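 0% = vehicle and 100% = reference antibiotic; read after six days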
Numbers without * were called inactive; ? = inconclusive; / = not tested or not shown.

SMILES	Bead autofluor	PrP UTR inh	Mtb hypoxia inh	Mtb hypoxia inh growth	ugtP null kill	RN4220 kill	BJeLR lethal
COc1ccc2c(C)cc(SCC(=O)NC3CCCCC3)nc2c1	2950	-4	-4	4	-8	-1.2	/
Nc1c(-c2cccs2)cnc2c(-c3ccc(F)cc3)cnn12	3466	-97	-7	3	13	-5.8	1
CCOC(=O)c1c(CN(CC)CC)oc2ccc(OC)cc12	3587	-8	/	/	0	1.1	12
Cc1cc(C(=O)NNC2CC(=O)N(c3ccc4ccccc4c3)C2=O)c(C)o1 (centres undefined)	3251	-8	-4	-1	7	5.8	9
COc1ccccc1N(CC(=O)NC1CCCCC1)S(=O)(=O)c1ccccc1	4646	0	10	8	4	3.6	-13
Cc1cc(C)n2nc(-c3cccc(Br)c3)cc2n1	3284	-45	12	14	-10	5.4	9
CCc1cc(C(=O)N2CCCC(C(=O)c3cccc4ccccc34)C2)n(C)n1 (centres undefined)	4391	-9	13	8	12	4.2	1
CCOc1ccc(N(CC(=O)NC2CCCCC2)C(=O)CCC(=O)Nc2nccs2)cc1	3841	-13	12	7	-1	3.6	-1
Cc1ccc2c(c1)C1CN(C)CCC1N2C(=O)COc1ccc(N(C)S(=O)(=O)c2cccs2)cc1 (centres undefined)	/	3	10	5	4	4.5	-9
Cc1ccc(CSc2nnc(-c3ccco3)o2)cc1	4506	-68	/	/	/	/	9
O=C(CSc1nnnn1-c1ccc(Cl)cc1)NC(=O)Nc1ccc2c(c1)OCCO2	8033	-81	-1	2	3	4.2	-6
CCOC(=O)N1CCN(C(=O)Nc2sc3nc4n(c(=O)c3c2C)CCC(C)CC4)CC1 (centres undefined)	6948	-35	6	2	10	6.9	5
COc1cccc(C2NC(=O)NC(C)=C2C(=O)Nc2ccccc2C)c1 (centres undefined)	/	/	-2	4	-4	-16	-2
Cc1cc(C(=O)Nc2ccc(N3CCCCC3)cc2)no1	5225	-57	-5	-2	5	3.9	0
COC(=O)C1C/C(=N/NS(=O)(=O)c2ccc(C)cc2)CS1 (centres undefined)	5756	-28	/	/	/	/	4
COc1ccc(N2CCN(Cc3nc4c(c(=O)n(C)c(=O)n4C)n3CC(C)=O)CC2)cc1	20509*	-23	4	4	6	2.1	-6
O=C(/C=C/c1ccc(NC(=O)c2ccccc2-c2ccccc2C(=O)O)cc1)c1ccccc1	4658	-6	/	/	23	2.2	-3
O=C(CSc1nnc(CN2CCOCC2)n1-c1ccccc1)N1CCc2ccccc21	8147	-22	11	10	-8	5.1	-5
Cc1ccc(S(=O)(=O)CCC(=O)Nc2ccc3nc(C)sc3c2)cc1	2583	-12	-7	4	5	-3.3	-10
Cc1ccc(NS(=O)(=O)c2ccc(NC(=O)c3ccc(-c4ccccc4)cc3)cc2)c(C)c1	3117	-18	/	/	-10	0.3	14
CCOC(=O)c1ccc(N=C(c2ccccc2)c2c(O)n(C)c(=O)n(C)c2=O)cc1	3761	-50	0	13	0	2.0	4
CN(C)S(=O)(=O)c1ccc(C(=O)Nc2nc(-c3cc4ccccc4o3)cs2)cc1	1964	-54	-3	-6	-37	4.8	11
O=C(CCS(=O)(=O)c1ccccc1)OCc1ccc([N+](=O)[O-])cc1	?	-6	5	-2	9	2.5	9
COCc1c(C#N)c(NCc2cc(OC)c(OC)c(OC)c2)nc(C)c1[N+](=O)[O-]	3667	-27	6	-1	9	4.5	5
CCn1c(N2CCN(S(=O)(=O)CC)CC2)nc2ccccc21	4077	-8	9	2	1	0.2	2

Other results:
SMILES	Bead autofluor	PrP UTR inh	Mtb hypoxia inh	Mtb hypoxia inh growth	ugtP null kill	RN4220 kill	BJeLR lethal
CCOC(=O)CSc1[nH]c(=O)cc(C)c1C#N	8737	-37	12	3	2	1.7	-3
Cc1cc(C)n(-c2ccc(C(=O)N3CCN(S(=O)(=O)c4cccc(Br)c4)CC3)cc2)n1	4196	0	1	-2	-2	2.7	/
COc1ccccc1[C@H]1C(c2cccc(Cl)c2)=NN(c2ccccc2)[C@@H]1CO	4060	72*	-7	0	63	-7.2	/
Cc1ccc(C(=O)N2CCc3ccccc3C2)cc1S(=O)(=O)N1CCOCC1	5256	-6	6	9	-2	-1.4	-2
COc1ccc(/C=C2\SC(=S)N(CC3CCCO3)C2=O)cc1 (centres undefined)	/	-39	2	10	7	-0.8	3
CC(C)Cn1c(N)c(C(=O)COC(=O)c2cccc(Cl)c2)c(=O)n(C)c1=O	3832	-18	-6	5	2	2.9	1
CCC(CO)n1cnnc1-c1ccncc1 (centres undefined)	3766	-19	8	2	2	0.2	3
Cc1cc(=O)oc2cc(OCC(=O)Nc3c(C)n(C)n(-c4ccccc4)c3=O)c(Cl)cc12	4842	-30	-1	-7	6	1.2	/
ON1C2CCCCC2N(O)C1c1ccccc1 (centres undefined)	8162	-33	10	13	8	2.8	4
Cc1cccc(C)c1NC(=S)Nc1c(C)n(C)n(-c2ccccc2)c1=O	2700	-9	18	3	5	4.8	13
COc1cc(NC(=O)COc2ccc(-n3cnnn3)cc2)cc(OC)c1OC	4031	-14	-3	-3	-3	2.6	/
COc1ccc(C2C(C(=O)c3ccccc3)=C(C)Nc3nc4ccccc4n32)c(OC)c1 (centres undefined)	5991	-13	-3	4	0	-5.1	-4
CCOC(=O)c1sc(SC)nc1N	4421	-54	5	2	8	4.0	-3
CC(=O)c1cccc(NC(=O)N2CCCC2C(=O)NC2CCCCC2)c1 (centres undefined)	/	-5	/	/	-2	-5.8	4
CCOC(=O)c1cc2sc(C)cc2n1CCCN1C(=O)c2ccccc2C1=O	3684	-12	7	9	-29	0.0	-4
COC(=O)c1ccccc1NC(=O)COC(=O)Cc1ccc(S(=O)(=O)N2CCOCC2)s1	3687	-3	5	2	2	2.4	/
CC(C)Cn1c(SCC(=O)N(C)c2c(N)n(Cc3ccccc3)c(=O)[nH]c2=O)nc2ccccc21	6054	-13	-8	2	2	-0.7	-1
CCOC(=O)c1ccc2c(c1)N(CC(=O)N1CCCCC1)C(=O)C(C)(C)O2	4771	-12	15	12	-6	6.0	-12
CC(C)c1ccc(/C=N/NC(=O)C2CCCC2)cc1	6891	-48	/	/	/	/	7
COc1cccc(C(=O)C2CCCN(Cc3ccc(F)cc3)C2)c1 (centres undefined)	3357	-20	14	7	9	1.7	-11
O=C(CSc1nnc(COc2ccc(Cl)cc2)o1)NC1CC2CCC1C2 (centres undefined)	5879	-30	12	17	15	-0.4	4
CCOC(=O)c1c(NC(=O)C2C3CCC(O3)C2C(=O)O)sc2c1CCCC2 (centres undefined)	4325	-16	9	3	1	11	8
Cc1cc(O)c(C2=Nc3ccccc3SC(c3ccc(Cl)cc3)C2)c(=O)o1 (centres undefined)	2496	-48	-5	-3	-7	2.0	-7
CCCCN(C)CCCNC(=O)C1CCC(CNS(=O)(=O)c2c(C)cc(C)cc2C)CC1 (centres undefined)	4126	-11	17	15	-2	-3.0	-7
Cc1ccc(NC(=O)CSc2sc3c(O)cc(=O)[nH]c3c2C#N)cc1C	3795	-23	4	4	1	3.7	-6

Two of the compounds above, with values under each structure:
Below each compound – Bead autofluor	PrP UTR inh	Mtb hypoxia inh	Mtb hypoxia inh growth	ugtP null kill	RN4220 kill	BJeLR lethal
COc1ccccc1[C@H]1C(c2cccc(Cl)c2)=NN(c2ccccc2)[C@@H]1CO
 : 4060	72*	-7	0	63	-7.2	/
Cc1ccc(C(=O)N2CCc3ccccc3C2)cc1S(=O)(=O)N1CCOCC1
 : 5256	-6	6	9	-2	-1.4	-2

(listing goes on)
SMILES	Bead autofluor	PrP UTR inh	Mtb hypoxia inh	Mtb hypoxia inh growth	ugtP null kill	RN4220 kill	BJeLR lethal
O=C(N/N=C/C1=C(N2CCOCC2)C(=C\c2ccccc2)/CC1)Nc1ccccc1	2380	-1	/	/	/	/	16
CC(C)NC(=O)CCS(=O)(=O)c1cccc2nonc12	8764	-16	-13	8	1	4.7	-10
O=C(Nc1ccc(Cl)cc1C(=O)NCc1cccnc1)c1ccc(Cl)cc1Cl	1929	-8	1	6	-10	-4.2	-1
CCOc1ccc2c3c(c(=O)oc2c1OCC)CCCC3	2336	-5	/	/	9	12	5
COc1ccc(NC(=O)CSc2ccc(NC(C)=O)cc2)cc1S(=O)(=O)N1CCOCC1	3034	-42	3	4	0	5.4	/
O=C(NCCc1ccccc1)c1ccc2c(c1)N(Cc1ccccc1)C(=O)CS2=O (centres undefined)	5952	7	/	/	11	0.8	-5
CC(=O)Nc1nc(SCC(=O)Nc2nnc(C)s2)[nH]c(=O)c1NC(=O)c1cccs1	2126	-18	-3	2	-2	5.5	-3
CC1(C)CC(=O)c2cc(C(=O)Nn3cnnc3)c(=O)n(-c3ccccc3)c2C1	2357	-18	7	2	5	-4.9	0
COC(=O)Cn1c2ccc(Cl)cc2c2nc(C)sc21	5926	-23	16	12	10	7.6	-4
CCOC(=O)c1cc(-c2ccccc2)nn1CCC#N	4443	-16	11	2	5	12	-4
COc1cc(C(=O)N2CCN(S(=O)(=O)c3ccc(C)cc3)CC2)ccc1OCC(=O)N1CCOCC1	3860	-23	2	7	0	4.8	/
Cc1c(Cl)cnc(NC(=O)COC(=O)/C=C/c2ccco2)c1Cl	5000	-23	1	-2	0	6.4	/
O=C(CC(CC(=O)c1ccccc1)c1ccncc1)c1ccccc1	3901	-22	13	5	-3	4.0	/
COc1ccc(-c2cc(C(F)(F)F)nc(N3CCOCC3)n2)cc1OC	10043	-14	5	-4	27	0.3	0
CCc1nnc(NS(=O)(=O)c2ccc(Nc3ccc4nonc4c3[N+](=O)[O-])cc2)s1	4386	-62	12	22	-1	5.2	-1
COc1ccccc1CNC(=O)c1ccc(-c2ccccc2C(F)(F)F)o1	3537	-23	11	8	5	0.6	8
O=Cc1cn(CC(=O)N2CCCCCC2)c2ccccc12	4322	-16	9	-8	2	6.1	-7
COc1cccc(C=NNC(=O)CCc2c(C)n[nH]c2C)c1O	/	/	10	-4	4	8.1	/
CN(CCCNC(=O)CCC(=O)N1CCOc2ccccc21)Cc1ccccc1	6267	-1	6	4	3	3.9	12
O=C(NCCC1=CCCCC1)c1cc(S(=O)(=O)N2CCOCC2)ccc1F	?	-24	4	3	4	1.4	-5
CCN(Cc1ccccc1)C(=O)Cn1c(=O)n(CCC(=O)N2CCCCC2)c(=O)c2sccc21	5504	-5	7	9	7	3.5	4
CCN1C(=O)C2C(c3ccc(C)cc3)N3C(=O)N(c4ccc(C)cc4)C(=O)[C@@]3(CC)C2C1=O (some centres undefined)	/	/	5	10	-8	4.1	/
O=c1nc(-c2ccccc2)c(-c2ccccc2)n[nH]1	4105	-12	2	-1	2	1.1	0
CC(=O)Nc1cc2ccccc2oc1=O	2507	-9	1	4	7	0.1	11
CCn1cc(Br)c(-c2nc3ccccc3c(=O)n2N)n1	9640	-47	8	9	-3	6.6	3

Next section; it opens with the four that closed the last part.
SMILES	Bead autofluor	PrP UTR inh	Mtb hypoxia inh	Mtb hypoxia inh growth	ugtP null kill	RN4220 kill	BJeLR lethal
CCN1C(=O)C2C(c3ccc(C)cc3)N3C(=O)N(c4ccc(C)cc4)C(=O)[C@@]3(CC)C2C1=O (some centres undefined)	/	/	5	10	-8	4.1	/
O=c1nc(-c2ccccc2)c(-c2ccccc2)n[nH]1	4105	-12	2	-1	2	1.1	0
CC(=O)Nc1cc2ccccc2oc1=O	2507	-9	1	4	7	0.1	11
CCn1cc(Br)c(-c2nc3ccccc3c(=O)n2N)n1	9640	-47	8	9	-3	6.6	3
Cc1nc2c(cnn2-c2ccccc2)c(=O)n1N=Cc1ccccc1	/	/	2	12	7	7.0	/
COc1ccc(CC(=O)NN=Cc2ccc(-c3ccc(F)cc3)o2)cc1OC	/	/	11	0	8	2.6	/
CCOc1ccc(-c2nnn(CC(=O)NCc3ccc(OC)cc3)n2)cc1OCC	10533	-16	3	3	5	4.1	-13
Cc1cc(=O)[nH]c(N/N=C/c2sccc2C)n1	2417	-18	/	/	/	/	6
COc1ccc(-n2c(=S)[nH]c3cc(C(=O)NCc4ccccc4)ccc3c2=O)c(OC)c1	3849	-1	-3	6	14	-4.8	3
O=C1c2ccccc2S(=O)(=O)c2cc(C(=O)N3CCC(O)CC3)ccc21	3827	-1	7	9	5	9.3	-7
CCc1ccccc1NS(=O)(=O)c1cc2c3c(c1)CCN3C(=O)CC2	5430	1	7	7	9	9.9	5
CCOc1ccc(NC(=O)c2sc(N3CCOCC3)nc2-c2ccccc2)cc1	2079	1	2	-4	10	4.4	0
CC(C)Oc1cccc(OCCN2C(=O)c3ccccc3C2=O)c1	3983	-26	5	-9	3	8.7	-2
